SARS PLpro yeast: blocks SARS-CoV papain-like protease in a yeast assay; Potency, µM (top dose mostly 32.9 µM), for inactives: at the highest dose activity, positive = growth rescue; S. cerevisiae expressing SARS-CoV PLpro, growth rescue; control for the full effect not named in the record; AID 485353; 330,000 compounds, 0.19% hits; active means well fitted rising curve with a large enough effect; inconclusive means small, poorly fitted or top-dose-only effect; inactive means no such curve, though single readings can be large or run the other way; further: 0% is about no effect; nearly all actives have a fitted effect of over 55% in size; growth read by luminescence after 48 h
2A StopGo: FMDV 2A StopGo reporter, luciferase signal; human cells with a luciferase reporter of 2A StopGo recoding; control for the full effect not named in the record; Potency, µM (series often up to 57.9 µM), without a hit: at the highest dose signal change, negative = less light; 410,000 compounds, 1.2% hits; AID 1159524; active = well fitted falling curve with a large enough effect; inconclusive = small, poorly fitted or top-dose-only effect; inactive = no such curve, though single readings can be large or run the other way; tested in HEK293T cells; further: on the % scale 0 is the no-effect control and ±100 the full control effect; nearly all actives have a fitted effect of over 45% in size; luciferase light after 4 h
RE007 growth inh: less growth of the S. pombe RE007 Vpr strain | S. pombe RE007 Vpr strain, BacTiter-Glo ATP luminescence, 24 h; control for the full effect not named in the record | Potency, µM (highest dose often 92.2 µM), for the others: at the top dose activity change, negative = less growth | 360,000 compounds, 0.21% hits | AID 651644; active = well fitted falling curve with a large enough effect; inconclusive = small, poorly fitted or top-dose-only effect; inactive = no such curve, though single readings can be large or run the other way;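 further: on the % scale 0 is the no-effect control and ±100 the full control effect; nearly all actives have a fitted effect of over 50% in size; the assay follows cell death caused by Vpr and the record does not say whether a fall means rescue or toxicity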
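Fission yeast RE007 carrying one integrated HIV-1 vpr copy, seeded at OD 0.01 in PMG+AL medium with 23 nL pinned compound. Grown 24 h at 30 degrees; viability read by BacTiter-Glo luminescence after 5 min.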
An asterisk follows results filed as active; u = inconclusive; [ ] = dose if it differs, or a comment. Potency means the concentration at half of the fitted maximal effect. The list is partial, so the mix of outcomes need not match the whole.

molecule,2A StopGo,RE007 growth inh,SARS PLpro yeast
COc1ccc(S(=O)(=O)Nc2cccc3c2O[C@H](CN(C)C(=O)Nc2ccc4c(c2)OCO4)[C@@H](C)CN([C@H](C)CO)C3=O)cc1,50%[activator],-4%,1%
CCCC(=O)Oc1c(S(=O)(=O)c2ccc(C)cc2)c(C)nn1C(C)(C)C,-29%,0%,-4%
COc1cccc(NS(=O)(=O)c2ccc(S(=O)(=O)N3CCCC3)cc2)c1,-5%,3%,2%
Cc1ccc(OCCOC(=O)c2cccc(S(=O)(=O)N3CC(C)OC(C)C3)c2)cc1 (stereo not drawn),u,1%,-5%
CCOc1ccc(CCNC(=O)CCS(=O)(=O)c2ccc(OC)cc2)cc1OCC,3%,-2%,0%
Cc1cc(C)c2nc(NC(=O)C3CSC4(C)CCC(=O)N34)sc2c1 (stereo not drawn),9%,-2%,-11%
O=C(NCCc1ccc(Cl)cc1)C1=CC=CN2CCS(=O)(=O)N=C12,-3%,-3%,-6%
Cc1cccc(-n2c(SCC(=O)NCC3CCCO3)nc3ccccc3c2=O)c1C (stereo not drawn),3%,7%,-3%
O=C(c1cnn(C(=O)c2ccco2)c1)c1ccccc1O,-6%,-4%,0%
O=C(NNc1ccc([N+](=O)[O-])cc1)c1ccccc1Cl,4%,57%,-3%
CN(C(=O)CSc1nc2ccccc2[nH]1)C1CCS(=O)(=O)C1 (stereo not drawn),-7%,-6%,-9%
CSC(=S)N/N=C/c1ccc(Br)cc1,8%,13%,1%
NC(=O)c1ccsc1NC(=O)COC(=O)c1ccccn1,-6%,8%,1%
CN(C)CCN1C(=O)c2ccccc2C1=O,-7%,19%,3%
Cc1cc(C)c(C)c(S(=O)(=O)N2CCC(C(=O)NC3=NCCS3)CC2)c1C,-21%,-11%,-2%
COc1cccc(NC(=O)c2ccc(OC(F)(F)F)cc2)c1,31%[activator],-6%,1%
COc1ccc(C(=O)NNC(=O)c2cccs2)cc1S(=O)(=O)N1CCOCC1,-5%,-3%,-4%
Cc1noc(C)c1C(=O)NCC(=O)Nc1ccccc1Br,-8%,7%,1%
COC(=O)c1ccc(NC(=O)COC(=O)CCC2CCCC2)cc1,-8%,-6%,-4%
O=C(C[C@@H]1C/C=C\CCCC(=O)OC[C@@H]2CCCN2C1=O)N[C@H](CO)Cc1ccccc1,-17%,5%,-11%
CC(C)(C)OC(=O)NCc1ccc(CNC(=O)c2nc[nH]c2C(=O)N2CCN(C(=O)OC(C)(C)C)CC2)cc1,20µM*,-5%,-1%
COc1ccc(CNC(=O)COC(=O)c2ccc(Br)o2)cc1,-14%,-2%,7%[6.58 µM]
CN(C)C(=S)N=Nc1[nH]c2ccccc2c1O,49%[activator],5%,0%
CC[C@@]12C(=O)N(c3ccccc3)C(=O)N1[C@H](c1ccc(OC)cc1)[C@@H]1C(=O)N(C(C)(C)C)C(=O)[C@@H]12,-12%,-9%,-1%
O=C(CSc1ccc2nnc(-c3ccccn3)n2n1)Nc1nccs1,-14%,-9%,1%
NC(N)=Nc1ccc2[nH]c3c(c2c1)C[C@@]1(O)[C@H]2Cc4ccc(O)c5c4[C@@]1(CCN2CC1CC1)C3O5 (stereo partly drawn),-26%,-6%,1%
CCc1nn2c(=O)cc(COc3ccc(/C=C4\C(=N)N5N=C(C)SC5=NC4=O)cc3)nc2s1,-1%,0%,-10%
CCN1CCN(c2ccccc2NC(=O)C(C)Oc2ccc(C(C)=O)cc2)CC1 (stereo not drawn),-19%,-5%,7%
Cc1cccc(OCC(=O)N(Cc2ccccc2)c2c(N)n(Cc3ccccc3)c(=O)[nH]c2=O)c1,14%,2%,-3%
CCOc1ccc2nc(NC(=O)C3CSC4(C)CCC(=O)N34)sc2c1 (stereo not drawn),56%[activator],-6%,-6%
O=C(CCl)N1CCN(S(=O)(=O)c2ccc3c(c2)CCC3)CC1,20µM*,9%,1%
CC(NC(=O)CSc1nnc2n1CCCCC2)c1ccccc1Cl (stereo not drawn),-5%,-2%,-3%
CCOc1ncccc1C(=O)Nc1ccc(-c2ccc3nnc(C)n3n2)cc1,-18%,-13%,0%
CC(=O)c1ccc(NC(=O)COC(=O)C2CC3C=CC2C3)cc1 (stereo not drawn),59%[activator],3%,-4%
O=C(CNC(=O)c1n[nH]c2ccccc12)Nc1cc(Cl)ccc1Cl,1%,-3%,3%
COCCNC(=O)c1cc(-c2ccccc2)nn1Cc1cc(C)no1,-4%,-14%,-8%
CCN(CC)C(=O)[C@H]1CC(CC(=O)NCCCN(C)C)C(=O)N2CCc3c([nH]c4ccccc34)[C@]12C (stereo partly drawn),-19%,4%,5%
COc1ccc(C(=O)Nc2nnc(CCS(=O)(=O)c3ccc(C)cc3)s2)cc1,20%,10%,0%
O=C(C[n+]1ccccc1)N/N=C/c1ccc(Br)cc1,-14%,-1%,1%
CCN1C(=O)[C@@H]2[C@H](C1=O)[C@@H]1C(=O)Nc3ccccc3C(=O)N1[C@@H]2c1ccccc1,-7%,6%,-12%
CC(C)(C)c1ccc(OCCC(=O)OCC(=O)NC2CC2)cc1,-25%,-3%,-18%
COc1ccc(C(=O)N[C@H](C(=O)NCCc2ccc3c(c2)OCCO3)C(C)C)cc1,1%,-6%,-5%
O=C(COC(=O)Cn1[nH]c(=O)c2ccccc2c1=O)Nc1c(Cl)cccc1C(F)(F)F,-1%,-11%,-5%
COc1ccc(CCNC(=O)Cn2cccc2C(=O)c2ccccc2)c(OC)c1,4%,0%,-1%
CN(C(=O)CSc1ncn[nH]1)C1(C#N)CCCCC1,-2%,-1%,0%
CCCNC(=O)N1[C@H]2CC[C@@H]1C(C(=O)OC)=C(c1ccc(OC(F)(F)F)cc1)C2,u,13%,0%
CCN(CC(=O)NCc1cccs1)C(=O)c1cc(Br)ccc1O,86%[activator],-9%,3%
O=C(c1cnn(C(=O)c2ccco2)c1)c1cc(F)ccc1O,-18%,-9%,0%
C[C@H](CO)N1C[C@H](C)[C@@H](CN(C)C(=O)NC2CCCCC2)Oc2ccc(NC(=O)C3CCCCC3)cc2C1=O,-8%,15%,5%
COc1ccccc1NC(=O)COC(=O)c1ccc(N2CCCC2=O)cc1,-4%,-25%,7%
CC[C@](C)(O)c1cc2ccccc2c(=O)o1,-22%,-1%,0%
Cc1cc(C(=O)NC2=NCCS2)c2ccccc2n1,4%,4%,-1%
COCC(C)n1c(SCC(=O)NC(=O)NC2CCCC2)nc2ccccc2c1=O (stereo not drawn),-21%,-16%,-1%
CN(CCOc1ccc(Cl)cc1)C(=O)c1cc(S(=O)(=O)N2CCOCC2)ccc1N1CCCC1,u,11%,1%
CCCCNc1c(-c2ccc(OC)c(SC(C)CC)c2)nc2ccc(C)cn12 (stereo not drawn),32µM*,u,-3%
CCCCNC(=S)NCc1ccc2[nH]c3c(c2c1)CCCC3,0%,8%,-3%
CC1CCC2(CC1)NC(=O)N(CC(=O)Nc1cccc(C#N)c1)C2=O (stereo not drawn),-3%,6%,3%
N#Cc1ccc(CN2CCN(C(=O)c3ccc(S(=O)(=O)NCc4ccco4)cc3)CC2)cc1,u,1%,2%
C/C(=N\O)c1ccc2c(c1)OCCO2,2%,3%,-3%
O=C(CSc1nnc2ccccn12)NNC(=O)c1cccc([N+](=O)[O-])c1,-16%,-2%,4%

(next part)
molecule,2A StopGo,RE007 growth inh,SARS PLpro yeast
COc1c2c(cc3oc(CO[C@@H]4O[C@H](CO)[C@@H](O)[C@H](O)[C@H]4O)cc(=O)c13)O[C@H](C(C)(C)O)C2,9%,-3%,5%
Cc1ccc(OCCNC(=O)c2ccccc2OCc2c(C)noc2C)cc1,-27%,5%,1%
COc1ccc(-c2oc(=O)c3cc(OC)c(OC)cc3c2C#CCCCO)cc1,-26%,-4%,-2%
Cc1ccc(SCC(=O)OCC(=O)N(CCC#N)c2ccccc2)cc1,-18%,9%,-1%
C=CC[C@@H](CC(=O)N[C@H](CO)Cc1ccccc1)C(=O)N[C@H](COC(=O)[C@@H](CC=C)Cc1ccc(F)cc1)Cc1c[nH]c2ccccc12,u,-7%,0%
CCc1ccccc1NC(=O)COC(=O)c1c(C)nsc1NC,u,-7%,-4%
C[C@H](CO)N1C[C@H](C)[C@@H](CN(C)S(=O)(=O)c2cn(C)cn2)Oc2ccc(NC(=O)C3CC3)cc2C1=O,-12%,3%,-1%
CC(C)C[C@H](NC(=O)c1nc[nH]c1C(=O)NCCCCCN)C(=O)OCc1ccccc1,-21%,32%,2%
COc1ccc(-c2ccc3c(c2)c(-c2cccs2)c(-c2cc(OC)cc(OC)c2)n3C)cc1,-3%,-3%,-10%
O=C(O)CCC(=O)OCc1c(-c2ccccc2)ncc2ccccc12,-4%,3%,2%
COc1ccc(N2CC(C(=O)N/N=C/c3ccc([N+](=O)[O-])cc3)CC2=O)cc1 (stereo not drawn),25%,-5%,-3%
CCNc1ccc(C(=O)OCC(=O)Nc2cc(C)on2)cc1[N+](=O)[O-],-2%,-1%,-1%
CC(=O)N1CCN(CC(C)(C)NS(=O)(=O)c2ccccc2)CC1,-18%,-23%,1%
C=CC(=O)Nc1ccc(N(C)c2ccnc(Nc3ccc(N4CCN(C)CC4)cc3)n2)cc1,0%,-23%,17%
C[C@H](CO)N1C[C@H](C)[C@@H](CN(C)Cc2ccccc2)Oc2c(NC(=O)c3ccncc3)cccc2C1=O,60%[activator],-17%,-3%
COc1ccc(NS(=O)(=O)c2cc(NC(=O)c3ccc(=O)[nH]n3)ccc2C)cc1,34%[activator],22%,-2%
COc1ccc(C(=O)Nc2ccncc2)cc1S(=O)(=O)N1CCOCC1,28%,-9%,11%
CC(=O)c1ccc(NC(=O)CN2C(=O)NC(C)(C3CCCCC3)C2=O)cc1 (stereo not drawn),-9%,0%,-9%
Cc1cc(C(=O)COC(=O)c2ccc(O)cc2O)c(C)n1C(C)C,27%,-2%,-4%
O=C(CN1CCN(c2ccccc2F)CC1)NC(=O)NCc1ccco1,-9%,-3%,-2%
CCOC(=O)N1CCN(C(=O)COC(=O)c2cccc(C)c2[N+](=O)[O-])CC1,4%,11%,-6%
O=C(COc1ccc(Br)cc1)Nc1ccccc1N1CCCC1,-12%,-14%,0%
O=C(NCc1ccco1)c1ccc(S(=O)(=O)N2CCCCCC2)cc1,-10%,-8%,-1%
O=C(CN1C(=O)C2CC=CCC2C1=O)Nc1nc(-c2ccc(F)c(F)c2)cs1 (stereo not drawn),u,3%,0%
CC(C)C(NC(=O)c1c(F)cccc1F)C(=O)NCc1ccc(S(=O)(=O)N2CCOCC2)cc1 (stereo not drawn),-2%,1%,3%
COc1cc2c3cc1Oc1c(OC)c(OC)cc4c1[C@H](Cc1ccc(cc1)Oc1cc(ccc1O)C[C@H]3N(C)CC2)N(C)CC4,-4%,-6%,0%
Cc1cccc(C(=O)NCC(=O)OCC(=O)N2CCN(S(=O)(=O)c3ccc(C)cc3C)CC2)c1,-30%,-2%,-3%
Cc1ccc(C)c(N=Nc2ccc(O)c3ncccc23)c1,u,8%,u
O=C(CSc1ncccn1)N/N=C/c1ccc(OC2CSC2)cc1,17%,-2%,0%
CC(=O)Nc1ccc(SC[C@H](Cc2ccccc2)N2CC[C@@H](O)CCC2=O)cc1,67%[activator],0%,-1%

Compound profiles, from the list above. Values in the order: 2A StopGo, RE007 growth inh, SARS PLpro yeast
`Cc1noc(C)c1C(=O)NCC(=O)Nc1ccccc1Br` is entered as -8%, 7%, 1%
`COc1ccc(C(=O)Nc2nnc(CCS(=O)(=O)c3ccc(C)cc3)s2)cc1` is entered as 20%, 10%, 0%
`CCc1nn2c(=O)cc(COc3ccc(/C=C4\C(=N)N5N=C(C)SC5=NC4=O)cc3)nc2s1` is entered as -1%, 0%, -10%
`COc1ccc(C(=O)NNC(=O)c2cccs2)cc1S(=O)(=O)N1CCOCC1` is entered as -5%, -3%, -4%

New compounds follow.
molecule,2A StopGo,RE007 growth inh,SARS PLpro yeast
COc1ccc(-n2cc(-c3ccc(OC)c(OC)c3)[nH]c2=S)cc1,-1%,-1%,-2%
COc1ccccc1-c1oc2ccccc2c1C#CC(C)(C)O,-25%,7%,-6%
CC(=O)c1c(C)[nH]c(C(=O)OCC(=O)NCc2ccc3c(c2)OCO3)c1C,-26%,7%,2%
Cc1cccc(C(=O)O[C@H]2[C@H](Cc3ccccc3)NS(=O)(=O)[C@H]3CC4C=C[C@]23O4)c1,-9%,8%,-1%
Cc1ccc(S(=O)(=O)CCC(=O)OC2CC(C)OC2=O)cc1 (stereo not drawn),-1%,-3%,-6%
O=C(NN1C(=O)NC2(CCCCC2)C1=O)c1cc2ccccc2o1,11%,6%,2%
